Screening data (PubChem)
H5N1 CPE: MDCK cell protection from H5N1 avian flu | cytopathic effect, luminescence, 72 h; hits give high values; no value below 0 was filed and about half of the inactive calls have no number; reference of the scale not given here | inhibition, % at 50 µM | 96,000 tested, 0.07% active | AID 740; in the data active = inhibition above about 25%
* = called active by the depositor; i = inactive. These rows are one share of the data; the hit share may differ from the screen's.

SMILES	H5N1 CPE
COc1ccc(CCC(C)Nc2cccc(C)c2)cc1 (stereo unspecified)	i
CCC(C)C(=O)Nc1ccc(OC)cc1OC (stereo unspecified)	i
COC(=O)c1c(-c2ccc(Br)cc2)noc1N	0.2
O=C(CN1C(=O)C2C3C=CC(C3)C2C1=O)NC1CCCc2ccccc21 (stereo unspecified)	i
CC(C)Cn1cc(C(=O)N2CCC3(CC2)OCCO3)c2c3ccccc3n(C)c2c1=O	1.7
CNC(=S)NC1CC2CCCC(C1)N2Cc1ccco1 (stereo unspecified)	0.8
CCC(C)OC(=O)C(C)Oc1ccc(-c2ccccc2)cc1 (stereo unspecified)	i
COc1ccc2nc(NC(=O)c3ccc(-n4nc(C)cc4C)cc3)sc2c1	i
COCCCNC(=S)NNC(=O)c1cccnc1	i
CCOC(=O)Cn1c(=O)oc2cc(S(=O)(=O)NC(C)c3ccccc3)ccc21 (stereo unspecified)	i
O=C(NCCCNC(=O)c1cccs1)c1cccs1	3.5
CN(Cc1ccc(-n2cccn2)cc1)C(=O)c1cnn2c1NC(c1ccco1)CC2C(F)(F)F (stereo unspecified)	i
Cc1ccc(C(=O)NCCSc2ccccc2)cc1S(=O)(=O)Nc1ccccc1	i
CC(=O)N1CCc2cc(NS(=O)(=O)c3cccs3)ccc21	0.8
CCOc1ncccc1C(=O)OCc1cc(=O)oc2c(C)c(C)ccc12	i
NC(=O)c1cccc2c3c([nH]c12)CCCC3	i
CCOC(=O)c1cnn(-c2ccccc2)c1-n1cccc1C(=O)C(=O)Nc1ccccc1	i
Cc1cccc(NC(=O)CN(c2ccc(C(C)C)cc2)S(=O)(=O)c2c(C)nn(C)c2C)n1	0.6
CC1(C)CC(=O)C2=C(C1)Nc1ccccc1NC2c1ccccn1 (stereo unspecified)	0.5
Cn1c(O)c(C(=N)COc2cccc(Cl)c2)c(=O)n(C)c1=O	i
CC(C)OC(=O)C(NC(=O)c1ccccc1)=C1CCCCC1	i
CCCC1(C(=O)OCC)NC(c2ccc(N(C)C)cc2)C2C(=O)N(c3ccc(F)cc3)C(=O)C21 (stereo unspecified)	i
CCOC(=O)C1CCCN(C(=O)c2cc3ncc(Br)cn3n2)C1 (stereo unspecified)	i
Cc1cc2occ(CC(=O)Nc3nnc(C4CC4)s3)c2cc1C	1.1
Cc1nc(S(=O)(=O)N(C)Cc2ccccc2)c(C#N)c(C)c1Cl	i
CC(SCc1ccccc1)C(=O)N/N=C/c1cc2c(cc1Br)OCO2 (stereo unspecified)	i
O=C(NCCN1CCOCC1)c1ccc2c(c1)N(Cc1ccccc1)CCS2	i
Cc1ccc(CNC(=O)CSCC(=O)O)cc1	i
CCCCOc1ccc(CNC(=O)NS(=O)(=O)c2ccc(OCC(C)C)cc2)cc1	i
Cc1c2cccn2cc[n+]1C	0.3
CCOc1cc(/C=N/N=C(\N)c2nonc2N)cc(Br)c1OCc1cccc2ccccc12	0.5
COc1ccc(C(=O)/C=C/c2ccccc2C(F)(F)F)cc1	i
Cc1cccc(OCC(=O)Nc2ccccc2N2CCN(C(=O)C(C)C)CC2)c1C	0.9
Cc1ccc(NC(=O)c2cc3ccccc3o2)cc1S(=O)(=O)N(C)C	i
COC(=O)c1ccccc1NC(=O)CN1C(=O)C2CCCN2c2ncc(Cl)cc21 (stereo unspecified)	i
COc1ccc(NC(=O)C2(c3ccc(NC(=O)c4ccc(OC)c(OC)c4)cc3)CCCC2)cc1	0.2
Cn1c(NC(=O)c2ccccc2)cc(=O)n(C)c1=O	1.2
CCN(CC)c1ccc(NC(=O)c2cccc(OC)c2)c(C)c1	i
COCCn1c(=N)c(C(=O)NCCc2ccc(OC)cc2)cc2c(=O)n3cccc(C)c3nc21	i
CSc1cc(C)n(-c2ccc(Cl)cc2)c(=S)c1C(C)=O	2.0
CCOC(=O)C1CCCN(C(=O)c2cc(=O)c3ccccc3o2)C1 (stereo unspecified)	0.5
Cc1cccc(N(C)S(=O)(=O)c2ccc3[nH]cc(C(=O)N4CCOCC4)c(=O)c3c2)c1	0.9
Cc1cc(C)n2cc(CSc3nnnn3-c3ccc(Cl)cc3)nc2n1	0.8
CCCCN1C(=O)N(C)C2NC(=O)NC21 (stereo unspecified)	0.3
CC(=O)CSc1nnc(CSc2ncccn2)n1C1CCCCC1	0.7
COc1ccc(-c2csc(C3=C(O)CN(Cc4ccc(S(N)(=O)=O)cc4)C3=N)n2)cc1OC	1.6
Cc1onc(-c2ccccc2Cl)c1C(=O)Nc1ccc(N2CCOCC2)cc1	i
CCOC(=O)N1CCN(C(=O)c2cn(CCOC)c(=O)c3c2c2ccccc2n3C)CC1	1.9
Cc1ccc(C(=O)CC(C(=O)O)c2cn(CCC#N)c3ccccc23)cc1 (stereo unspecified)	1.1
CCOC(=O)C1CCN(C(=O)C2c3ccccc3C(=O)N(C)C2c2ccc(OC)cc2)CC1 (stereo unspecified)	0.7
CC1(C)CC(=O)C2=C(C1)N(N1CCOCC1)C(N)=C(C#N)C2c1cccnc1 (stereo unspecified)	1.8
COc1ccc2[nH]c(=O)c(CN(Cc3ccc4c(c3)OCO4)C(C)=O)cc2c1	2.1
CSc1nncn1/N=C/c1ccc2c(c1)OCO2	0.0
C/C(=N\O)C(=O)NCCN1CCCCC1	i
CC1Cc2ccccc2N1C(=O)COc1nc2ccccc2nc1N1CCOCC1 (stereo unspecified)	i
CC(Oc1ccc(Cl)cc1Cl)C(=O)Nc1ccc2oc(-c3ccncc3)nc2c1 (stereo unspecified)	3.8
N#C/C(=C1\CCCN1)c1nc2ccccc2c(=O)[nH]1	0.9
COCCn1c(=NC(=O)c2ccc3c(c2)OCO3)c(C#N)cc2c(=O)n3cccc(C)c3nc21	1.6
O=C(CC1N=C2c3ccccc3N=C(SCc3ccc(Cl)cc3)N2C1=O)NCc1ccco1 (stereo unspecified)	0.2
C=C(C)CSc1nnc(-c2cccc(S(=O)(=O)N(C)C)c2)n1-c1cc(OC)ccc1OC	0.3

21 of these compounds, reformatted.
molecule | H5N1 CPE
Cn1c(NC(=O)c2ccccc2)cc(=O)n(C)c1=O | 1.2
CCN(CC)c1ccc(NC(=O)c2cccc(OC)c2)c(C)c1 | i
COCCn1c(=N)c(C(=O)NCCc2ccc(OC)cc2)cc2c(=O)n3cccc(C)c3nc21 | i
CSc1cc(C)n(-c2ccc(Cl)cc2)c(=S)c1C(C)=O | 2.0
CCOC(=O)C1CCCN(C(=O)c2cc(=O)c3ccccc3o2)C1 (stereo unspecified) | 0.5
Cc1cccc(N(C)S(=O)(=O)c2ccc3[nH]cc(C(=O)N4CCOCC4)c(=O)c3c2)c1 | 0.9
Cc1cc(C)n2cc(CSc3nnnn3-c3ccc(Cl)cc3)nc2n1 | 0.8
CCCCN1C(=O)N(C)C2NC(=O)NC21 (stereo unspecified) | 0.3
CC(=O)CSc1nnc(CSc2ncccn2)n1C1CCCCC1 | 0.7
COc1ccc(-c2csc(C3=C(O)CN(Cc4ccc(S(N)(=O)=O)cc4)C3=N)n2)cc1OC | 1.6
Cc1onc(-c2ccccc2Cl)c1C(=O)Nc1ccc(N2CCOCC2)cc1 | i
CCOC(=O)N1CCN(C(=O)c2cn(CCOC)c(=O)c3c2c2ccccc2n3C)CC1 | 1.9
Cc1ccc(C(=O)CC(C(=O)O)c2cn(CCC#N)c3ccccc23)cc1 (stereo unspecified) | 1.1
CCOC(=O)C1CCN(C(=O)C2c3ccccc3C(=O)N(C)C2c2ccc(OC)cc2)CC1 (stereo unspecified) | 0.7
CC1(C)CC(=O)C2=C(C1)N(N1CCOCC1)C(N)=C(C#N)C2c1cccnc1 (stereo unspecified) | 1.8
COc1ccc2[nH]c(=O)c(CN(Cc3ccc4c(c3)OCO4)C(C)=O)cc2c1 | 2.1
CSc1nncn1/N=C/c1ccc2c(c1)OCO2 | 0.0
C/C(=N\O)C(=O)NCCN1CCCCC1 | i
CC1Cc2ccccc2N1C(=O)COc1nc2ccccc2nc1N1CCOCC1 (stereo unspecified) | i
CC(Oc1ccc(Cl)cc1Cl)C(=O)Nc1ccc2oc(-c3ccncc3)nc2c1 (stereo unspecified) | 3.8
N#C/C(=C1\CCCN1)c1nc2ccccc2c(=O)[nH]1 | 0.9

The list goes on:
SMILES	H5N1 CPE
COc1ccc(S(=O)(=O)N(C)CC(=O)NCCC2=CCCCC2)cc1OC	i
CN1CCN(S(=O)(=O)c2ccc(-c3noc(C4CCN(S(C)(=O)=O)CC4)n3)cc2)CC1	i
O=c1oc2ccc3ccccc3c2cc1-c1nnc(-c2ccccc2)o1	0.8
CCOc1ccc(N(CC(=O)Nc2cccc(F)c2)S(=O)(=O)c2c(C)noc2C)cc1	i
CC(=O)NCCN=C(C)c1sc2ccccc2c1O	2.6
N#Cc1ccc(-c2ccc3c(c2)OCO3)nc1SCC(=O)OCc1ccccc1	i
CCOC(=O)C1CCN(Cc2ccc(C(=O)OC)cc2)CC1	i
COc1ccc(-c2c(C)n([O-])c(C)c(C)[n+]2=O)cc1OC	i
O=C(Nc1nnc(C(F)(F)F)s1)c1cccnc1	2.0
COc1ccc(NC(=O)Cn2nnc(C(=O)NCc3ccco3)c2N)c(OC)c1	i
CCOC(=O)C1CCN(c2nc3ccccc3nc2C(C#N)C(=O)OCCOC)CC1 (stereo unspecified)	i
CCOc1cc(C)nc(N2CCCC(C(=O)NCc3ccccc3F)C2)n1 (stereo unspecified)	0.5
CCOC(=O)C(NC(C)=O)(Nc1cccc(F)c1)C(F)(F)F (stereo unspecified)	i
CCN(c1ccc(NC(=O)CN2C(=O)NC3(CCOc4ccccc43)C2=O)cc1)C(C)C (stereo unspecified)	i
Cn1cccc1Cc1nnc(SCC(=O)NCc2ccc3c(c2)OCO3)n1CCc1ccccc1	0.0
O=C(O)CCN(CCC(=O)O)c1ccccc1	0.4
Cc1ccc(C(=O)N2CCN(S(C)(=O)=O)C2)cc1	i
COCCCn1c(-c2ccc(Cl)cc2)n[nH]c1=S	i
C=CCn1c(-c2ccc(Cl)cc2)c[nH]c1=S	0.1
Cc1cc(C)c(C#N)c(SCCS(=O)(=O)Cc2ccc(Cl)cc2)n1	0.1
O=C(Nc1ccc(N2CCOCC2)cc1)Nc1cnsn1	1.7
COc1ccccc1C(=O)OCC(=O)Nc1ccc(OC(F)F)cc1	0.7
O=C(CSc1nnc(Cc2cccs2)n1-c1ccccc1)Nc1ccc2c(c1)OCCO2	0.9
CN(C)C(Cc1ccccc1)C(=O)c1ccc(-c2ccccc2)cc1 (stereo unspecified)	i
CCOC(=O)c1c(C)[nH]c(C(=O)COC(=O)C2CC2C)c1C (stereo unspecified)	i
O=C(NCCN1CCN(c2ccccc2)CC1)C1CCN(S(=O)(=O)c2cccs2)CC1	0.5
CCCS(=O)(=O)N1CCC(C(=O)NCCc2ccccc2)CC1	0.8
CCOC(=O)CSc1nnc(-c2nnc(SCC(=O)OCC)n2CC)n1CC	i
Cc1cc(C)n2nc(-c3cnn(C)c3C(F)(F)F)cc2n1	1.6
COCc1cc(C)c(C#N)c(=S)[nH]1	0.2
C#CCOc1c(Br)cc(/C=N/O)cc1OCC	0.6
O=C(O)c1ccc(NCc2ccncc2)cc1	0.2
CCOC(=O)C1CCN(C(=O)Nc2ccc(NC(=O)C3CCN(C(=O)OCC)CC3)cc2)CC1	i
O=C(Nc1ccn(C2CC(OC(=O)c3ccccc3)C(CO)O2)c(=O)n1)c1ccccc1 (stereo unspecified)	i
CC(C)(C)c1nc(SCC(=O)Nc2nc3c(s2)CCCC3)c2ccccc2n1	i
CCCOC(=O)c1ccc(NC(=O)CSC2=Nc3ccccc3C3CC=NN23)cc1 (stereo unspecified)	i
O=[N+]([O-])c1ccc(/C=N/n2c(C3CCCCC3)n[nH]c2=S)cc1	i
N#CC1=C(N)N(c2ccccc2C#N)C2=C(C(=O)CCC2)C1c1ccsc1 (stereo unspecified)	0.2
COC(=O)c1[nH]cnc1C(=O)c1ccccc1	i
CC(C)(C)c1ccc(OCC(=O)NCCN2CCCC2)cc1	i
Cc1ccc(-c2ccccc2NC(=O)CCl)o1	2.3
Cc1nn2c(-c3ccccc3)ccnc2c1-c1ccccc1	1.2
CCN(CC)S(=O)(=O)c1cccc(C(=O)NC(C(=O)Nc2nnc(C3CC3)s2)C(C)C)c1 (stereo unspecified)	i
O=C(CN(Cc1ccccc1)S(=O)(=O)c1ccc(Br)cc1)NCc1ccco1	i
COc1cc(NC(=O)Cn2ncc3c2-c2ccccc2OC3)cc(OC)c1OC	0.9
COc1ccc(C2CC(c3ccccc3)n3nc(NC(=O)c4cccs4)nc3N2)cc1 (stereo unspecified)	2.2
CCOC(=O)N1CCN(C2=NC3(CCCCC3)C(C#N)C(=O)N2)CC1 (stereo unspecified)	0.7
CCC(C)c1ccc(O)c(/C=N/O)c1 (stereo unspecified)	i
O=C(Nc1ccccc1C(=O)OCn1nnc2ccccc2c1=O)c1ccco1	0.5
O=C(Nc1ccc(OC(F)(F)F)cc1)c1n[nH]c(Cn2cncn2)n1	i
Cc1ccc(CNC(=O)COC(=O)c2c(C)noc2C)cc1	1.1
Cc1ccc(-n2nnnc2SCC(=O)NCCC2=CCCCC2)c(C)c1	i
Cc1c(C#N)c2ncn(CC#N)c(=O)c2n1-c1ccccc1	i
Clc1ccccc1OCCN1CCCCC1	0.9
Cn1c(SCC(=O)NC2CCCC2)nc2cccnc21	i
CCC(c1nnnn1C(C)(C)CC)N(CCN1CCOCC1)Cc1cc2cc(C)ccc2[nH]c1=O (stereo unspecified)	0.1
CS(=O)(=O)N(CC(=O)NCc1ccccn1)c1ccc2c(c1)OCCO2	i
CC(NC(=O)CSc1nnc(-c2cccc(S(=O)(=O)N3CCCCC3)c2)o1)C12CC3CC(CC(C3)C1)C2 (stereo unspecified)	6.3
O=S(=O)(c1cccs1)N1CCN(c2ncccn2)CC1	i
Cc1ccc(-n2c(C)cc(C(=O)CSc3nnnn3C)c2C)cc1	i
(listing goes on)
SMILES	H5N1 CPE
Cc1ccccc1OCC(=O)NC(=S)Nc1ccc2c3c(cccc13)CC2	i
O=c1c(-c2ccc3c(c2)OCCO3)coc2c(CN3CCOCC3)c(O)ccc12	i
O=C(O)c1ccc(NCc2ccc3c(c2)OCO3)cc1	i
CCCSc1nnc(N2C(=O)CC(c3ccsc3)C3=C2CCCC3=O)s1 (stereo unspecified)	5.3
CCn1ncc(C2=NOC(C(=O)NCc3ccccc3)C2)c1C (stereo unspecified)	i
COc1ccc(OC)c(C2C(C#N)=C(N)Oc3c2c(C)nn3-c2ccc(C)cc2)c1 (stereo unspecified)	i
Nc1nnnn1/N=C/c1cccc(O)c1	1.4
COc1ccc(/C=C2\SC(=O)N(CCNC(=O)Cn3cnnn3)C2=O)cc1	i
O=C(CSc1nc(C2CC2)nc2ccccc12)Nc1ccc2c(c1)OCCO2	i
